Bioassay records deposited in PubChem BioAssay by several laboratories.
YopH inh – blocks Yersinia enterocolitica YopH tyrosine phosphatase | AID 898 | inhibition, %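 (about 10 µM by stock and volumes)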 | fluorescence Ex485/Em525 | hit rate 0.16% among 140,000;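 active = inhibition of 50% or more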;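 also: controls were vehicle for no effect and minimum signal wells for full effect; inactives centre near -20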
Arbovirus inh – blocks arbovirus infection; hit rate 0.37% among 200,000; arbovirus infection cell-based antiviral screen; inhibition, % at 10 µM; AID 1251;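 active = inhibition from about 30%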;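 also: bluetongue infection of BSR cells; cell survival read as ATP light after 72 h; 0% = infected wells without compound and 100% = uninfected wells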
RecA splice inh – inhibitors of M. tuberculosis RecA intein splicing. hit rate 0.75% among 290,000. cell-free RecA intein splicing, fluorescence. inhibition, %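 (about 9 µM by stock and volumes)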. P9WHJ3; in the data active = inhibition above about 30%; inconclusive = no clear call, values can overlap the other calls;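 also: 0% = vehicle wells and 100% = reference inhibitor control wells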
Target sequence (P9WHJ3 whole entry, looked up, canonical isoform): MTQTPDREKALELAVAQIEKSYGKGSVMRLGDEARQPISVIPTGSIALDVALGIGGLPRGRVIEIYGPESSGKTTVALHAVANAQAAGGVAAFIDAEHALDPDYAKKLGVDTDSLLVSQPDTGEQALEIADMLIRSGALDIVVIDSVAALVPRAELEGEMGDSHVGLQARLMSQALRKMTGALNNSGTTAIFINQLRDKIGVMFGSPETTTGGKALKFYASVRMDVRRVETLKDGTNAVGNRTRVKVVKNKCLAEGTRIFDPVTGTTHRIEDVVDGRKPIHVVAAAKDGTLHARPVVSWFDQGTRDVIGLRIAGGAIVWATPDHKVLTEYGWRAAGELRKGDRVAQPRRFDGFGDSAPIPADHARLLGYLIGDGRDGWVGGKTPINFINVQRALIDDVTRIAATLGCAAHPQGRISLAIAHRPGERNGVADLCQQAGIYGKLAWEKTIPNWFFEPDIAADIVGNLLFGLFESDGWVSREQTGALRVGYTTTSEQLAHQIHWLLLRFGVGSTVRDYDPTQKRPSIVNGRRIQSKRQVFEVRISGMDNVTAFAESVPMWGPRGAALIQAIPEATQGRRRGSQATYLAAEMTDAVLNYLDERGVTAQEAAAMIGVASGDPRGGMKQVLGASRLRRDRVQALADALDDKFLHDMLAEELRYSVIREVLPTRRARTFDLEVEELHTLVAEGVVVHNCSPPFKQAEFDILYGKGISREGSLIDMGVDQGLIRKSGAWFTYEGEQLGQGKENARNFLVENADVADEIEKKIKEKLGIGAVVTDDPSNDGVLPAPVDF
Mtb H37Rv – M. tuberculosis H37Rv growth inhibitors, H37Rv strain (AID 1626). M. tuberculosis H37Rv growth inhibition; higher % means a stronger effect. inhibition, % at 10 µM, or IC50 in µM where a hit was titrated. hit rate 0.95% among 220,000;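 active = confirmed in a dose series; inconclusive = inhibition above 80% but not taken into the dose series; inactive = below 80% or under 30% at every dose of the series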;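 also: bacteria incubated seven days before Alamar blue readout; 0% = bacteria only wells and 100% = bacteria with antibiotic wells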
Mtb bLac sens – beta-lactam sensitization of Mtb H37Rv; M. tuberculosis H37Rv growth with meropenem, percent inhibition; hits of this screen are not shown here; inhibition, % at 25 µM; hit rate 0.27% among 330,000; AID 434955;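 active = about 74% or more and at least 40 points above the plate without the antibiotic, then above 30% in a dose series; inconclusive = first-round hits that could not be retested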;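 also: growth measured after seven days incubation then overnight dye step; 0% = bacteria only wells and 100% = bacteria with antibiotic; twin plates without the antibiotic show which effects depend on it; some results filed as inactive read as strong as hits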
Numbers without * were called inactive; ? = inconclusive; nt = not tested or not shown.

Value order: Mtb H37Rv	Mtb bLac sens	RecA splice inh	Arbovirus inh	YopH inh
- CCc1ccc(CN2CCC(Oc3ccc(C(=O)N4CCCC4)cc3)CC2)cc1
→ nt	2	2.9	nt	nt
- COC(=O)c1sccc1N/N=C(\C)c1ccc(F)c(Cl)c1
→ -2%	5	-1.0	5	-27
- Nc1nnc(CC(=O)N2CCCCC2)s1
→ -2%	-5	-0.3	7	-32
- O=C(NCc1ccc2c(c1)OCO2)c1ccc(Cl)nc1
→ 4%	-2	1.9	-4	nt
- CCOc1ccc(CCNC(=O)CSc2cc(=O)n(C)c3ccccc23)cc1OCC
→ 10%	4	1.2	4	-5
- CCCn1c(NC(=O)CN2C(=O)NC3(CCCCC3)C2=O)nc2ccccc21
→ nt	-8	4.0	nt	nt
- CC(C)(C)C(=O)N1CCN(c2ccc(NC(=O)c3ccc([N+](=O)[O-])o3)cc2)CC1
→ nt	100	0.0	nt	nt
- CCCC(=O)Nc1nnc(CCN2CCCCC2)s1
→ 0%	-4	2.6	-1	9
- Cc1ccc(S(=O)(=O)N2CCN(C(C)CC(=O)O)CC2)cc1 (stereo unspecified)
→ 3%	2	-0.3	7	nt
- CCn1nc(NC(=O)c2ccccc2)c2cc3cccc(C)c3nc21
→ 21%	14	-26	nt	nt

More structures follow:
Value order: Mtb H37Rv	Mtb bLac sens	RecA splice inh	Arbovirus inh	YopH inh
- CCOC(=O)N1CCN(c2nc(-c3ccccc3)c3cc(C)ccc3n2)CC1
→ nt	?	-55	nt	nt
- CCOC(=O)c1cc(-c2ccccc2)nn1CC1CC(c2cccnc2)=NO1 (stereo unspecified)
→ -13%	-9	1.1	nt	nt
- COc1cc(/C=C/c2sc3ccccc3[n+]2CCCS(=O)(=O)[O-])ccc1O
→ 2%	1	36*	0	nt
- O=C(Nc1cccc2c1CCCC2)c1cc([N+](=O)[O-])cc([N+](=O)[O-])c1
→ -4%	73	1.1	0	-11
- CCOC(=O)c1oc2cc(O)ccc2c(=O)c1-c1ccc(OC)cc1
→ -7%	-4	-0.4	2	-41
- O=C(N/N=C/c1ccc(Cl)cc1)C(=O)N1CCCCCC1
→ -2%	-5	-3.7	2	nt
- Cc1ccc(C)c(NC(=O)c2nnn(Cc3ccccc3)c2N)c1
→ -4%	4	1.8	-26	-11
- CCC(NC(=S)NCc1ccc(F)cc1)c1ccc(C)cc1 (stereo unspecified)
→ nt	-18	8.8	nt	nt
- O=C(Nc1nc2ccc(S(=O)(=O)N3CCCC3)cc2s1)c1ccccn1
→ ?	73	-1.2	-21	nt
- Cc1cccc(-n2c(N)c(C(=O)N3CCN(C)CC3)sc2=S)c1
→ 2%	-6	-1.4	1	-17

Other structures:
Value order: Mtb H37Rv	Mtb bLac sens	RecA splice inh	Arbovirus inh	YopH inh
- CN(CC(=O)Nc1ccc(Cl)cc1)C(=O)CCc1ccccc1
→ nt	-2	-0.9	nt	nt
- CCCC(=O)N1CC2(C)CN(C(=O)CCC)CC(CCC)(C1)C2=O
→ -5%	-11	-1.0	3	-7
- COc1cc(/C=N/NC(N)=S)ccc1OCc1ccc(C)cc1
→ ?	86	3.2	-17	-27
- CC1=NN(c2ccccc2)C(=O)C1C(=O)C(=O)Nc1ccc(F)cc1 (stereo unspecified)
→ 47%	10	2.5	5	nt
- O=C(c1ccccc1)N1N=C(c2ccccc2O)CC1c1ccc(Br)cc1 (stereo unspecified)
→ nt	-12	-5.8	nt	nt
- O=C(c1cc2cc(F)ccc2[nH]1)N1CCN(c2cccc(Cl)c2)CC1
→ nt	-3	3.6	nt	nt
- O=C(c1ccc(OC2CCN(C/C=C/c3ccccc3)CC2)cc1)N1CCCCC1
→ nt	37	0.7	nt	nt
- O=C(Nc1nc(-c2ccccc2)cs1)c1cccc([N+](=O)[O-])c1
→ 7%	16	3.4	-4	-16
- O=C(NCC1CCCO1)/C(=C\c1ccc(Cl)cc1)NC(=O)c1ccccc1 (stereo unspecified)
→ 2%	6	1.3	-1	-41
- Cc1ccc(Cn2c(SCCN3CCCCC3)nc3c2c(=O)[nH]c(=O)n3C)cc1
→ 6%	4	-0.6	9	-19

Remaining list, next part
Value order: Mtb H37Rv	Mtb bLac sens	RecA splice inh	Arbovirus inh	YopH inh
- Cn1c(O)c(/C=C2\C=Nc3ccc(Br)cc32)c(=O)n(C)c1=O
→ nt	?	0.1	nt	nt
- Cc1cccc(Nc2nn3c(=O)c4ccccc4nc3s2)c1
→ -2%	-17	1.7	-7	-26
- Cn1c2ccccc2c(=O)c2ccc(-c3ccc4c(c3)OCO4)cc21
→ nt	59	-3.6	nt	nt
- CCOc1ccc(S(=O)(=O)NCCC(=O)N(C)CC(=O)Nc2ccc(OC)cc2)cc1
→ nt	-22	-0.8	nt	nt
- CCC(=O)N1CCc2cc(S(=O)(=O)CCC(=O)NCCc3ccc(S(N)(=O)=O)cc3)ccc21
→ nt	0	-0.9	nt	nt
- COc1ccc(Cl)cc1-c1nc(SCC(=O)N(C)CCC#N)n[nH]1
→ 2%	3	0.7	21	nt
- FC(F)Oc1ccccc1NC(=S)NCCc1ccccc1
→ nt	0	6.5	nt	nt
- Cc1ccccc1CNC(=O)CN(c1cccc([N+](=O)[O-])c1)S(C)(=O)=O
→ 7%	1	1.3	2	nt
- CCN(CC)CC(=O)NCC1(c2ccccc2)CCCC1
→ 0%	8	-1.2	2	nt
- CCOC(=O)N1CCc2c(sc(NC(=O)CN3CCN(C)CC3)c2C(=O)Nc2ccccc2)C1
→ -2%	4	5.0	0	nt

Going on with the list:
Value order: Mtb H37Rv	Mtb bLac sens	RecA splice inh	Arbovirus inh	YopH inh
- Cc1ccc(CNC(=O)CN(c2ccc(C(C)C)cc2)S(=O)(=O)c2c(C)noc2C)cc1
→ nt	7	-2.7	nt	nt
- Nc1nc2ccccc2cc1S(=O)(=O)c1ccccc1
→ 2%	1	0.1	19	nt
- COc1cc(OC)cc(C(=O)Nc2cc(-c3cn4cccnc4n3)ccc2C)c1
→ -6%	0	-2.0	-4	nt
- COc1ccccc1CNC(=S)Nc1ccc(S(N)(=O)=O)cc1
→ nt	-4	-0.2	nt	nt
- CS(=O)(=O)N1CCC(Oc2ccccc2C(=O)NC2CCCCCC2)CC1
→ -1%	-4	-0.5	5	nt
- COc1cc(/C=N/Nc2ccc(Cl)c(C(=O)O)c2)ccc1OC(=O)c1ccc(F)cc1
→ nt	4	10.0	nt	nt
- O=c1c2ccccc2c(C=NCc2ccccn2)c(O)n1-c1ccccc1Cl
→ -1%	10	-2.7	-4	nt
- O=C1CC(Cc2ccc(Cl)cc2)C(=O)N1c1ccncc1 (stereo unspecified)
→ -6%	3	-13	5	-7
- O=C(CCc1ccccc1)Nc1cc(NC(=O)CCc2ccccc2)cc(C(=O)O)c1
→ -2%	6	8.5	1	nt
- O=C1CC(SC(=NCc2ccc3c(c2)OCO3)Nc2ccccc2)C(=O)N1 (stereo unspecified)
→ 6%	3	-0.3	-7	-26
- CCCn1c(N)c(C(=O)CSc2nnnn2-c2ccc(O)cc2)c(=O)n(C)c1=O
→ -2%	-5	-0.5	-1	-15
- C=C(C)CSc1nnc(-c2ccc(C)cc2)n1N
→ 0%	-25	-2.6	0	-8
- CCC(=O)N1CCc2cc(S(=O)(=O)CCC(=O)Nc3ccc(F)c(F)c3)ccc21
→ -4%	1	-1.6	2	-16

Ordered by SMILES length (lowest first): some entries from above
Value order: Mtb H37Rv	Mtb bLac sens	RecA splice inh	Arbovirus inh	YopH inh
- C=C(C)CSc1nnc(-c2ccc(C)cc2)n1N
→ 0%	-25	-2.6	0	-8
- FC(F)Oc1ccccc1NC(=S)NCCc1ccccc1
→ nt	0	6.5	nt	nt
- CCN(CC)CC(=O)NCC1(c2ccccc2)CCCC1
→ 0%	8	-1.2	2	nt
- O=C1CC(Cc2ccc(Cl)cc2)C(=O)N1c1ccncc1 (stereo unspecified)
→ -6%	3	-13	5	-7
- COc1ccccc1CNC(=S)Nc1ccc(S(N)(=O)=O)cc1
→ nt	-4	-0.2	nt	nt
- Cn1c2ccccc2c(=O)c2ccc(-c3ccc4c(c3)OCO4)cc21
→ nt	59	-3.6	nt	nt
- CS(=O)(=O)N1CCC(Oc2ccccc2C(=O)NC2CCCCCC2)CC1
→ -1%	-4	-0.5	5	nt
- O=C1CC(SC(=NCc2ccc3c(c2)OCO3)Nc2ccccc2)C(=O)N1 (stereo unspecified)
→ 6%	3	-0.3	-7	-26
- COc1cc(OC)cc(C(=O)Nc2cc(-c3cn4cccnc4n3)ccc2C)c1
→ -6%	0	-2.0	-4	nt
- O=C(CCc1ccccc1)Nc1cc(NC(=O)CCc2ccccc2)cc(C(=O)O)c1
→ -2%	6	8.5	1	nt
- CCCn1c(N)c(C(=O)CSc2nnnn2-c2ccc(O)cc2)c(=O)n(C)c1=O
→ -2%	-5	-0.5	-1	-15
- Cc1ccccc1CNC(=O)CN(c1cccc([N+](=O)[O-])c1)S(C)(=O)=O
→ 7%	1	1.3	2	nt
- CCC(=O)N1CCc2cc(S(=O)(=O)CCC(=O)Nc3ccc(F)c(F)c3)ccc21
→ -4%	1	-1.6	2	-16
- COc1cc(/C=N/Nc2ccc(Cl)c(C(=O)O)c2)ccc1OC(=O)c1ccc(F)cc1
→ nt	4	10.0	nt	nt
- CCOC(=O)N1CCc2c(sc(NC(=O)CN3CCN(C)CC3)c2C(=O)Nc2ccccc2)C1
→ -2%	4	5.0	0	nt
- CCC(=O)N1CCc2cc(S(=O)(=O)CCC(=O)NCCc3ccc(S(N)(=O)=O)cc3)ccc21
→ nt	0	-0.9	nt	nt

Some of these compounds in order of molar mass, lowest first:
Value order: Mtb H37Rv	Mtb bLac sens	RecA splice inh	Arbovirus inh	YopH inh
- COc1ccccc1CNC(=S)Nc1ccc(S(N)(=O)=O)cc1
→ nt	-4	-0.2	nt	nt
- O=C(CCc1ccccc1)Nc1cc(NC(=O)CCc2ccccc2)cc(C(=O)O)c1
→ -2%	6	8.5	1	nt
- COc1cc(/C=N/Nc2ccc(Cl)c(C(=O)O)c2)ccc1OC(=O)c1ccc(F)cc1
→ nt	4	10.0	nt	nt

This is a subset; count on the stated rates, not on these rows.
